STAT3 SMM = STAT3 binders, primary screen, biochemical, small molecule microarray, single point, set 2; calls only; Signal transducer and activator of transcription 3 (Homo sapiens), P40763; 17,000 compounds, 0.2% hits; His-STAT3 binding, anti-His fluorescence; AID 624138, 2012;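 active = compounds whose four printed spots each show fluorescence over background unusually high for their array block, chance value under 7%; compounds were printed on slides so no solution concentration is given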;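 also: about 2 pmol printed per array spot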
Target sequence (P40763 whole entry, looked up): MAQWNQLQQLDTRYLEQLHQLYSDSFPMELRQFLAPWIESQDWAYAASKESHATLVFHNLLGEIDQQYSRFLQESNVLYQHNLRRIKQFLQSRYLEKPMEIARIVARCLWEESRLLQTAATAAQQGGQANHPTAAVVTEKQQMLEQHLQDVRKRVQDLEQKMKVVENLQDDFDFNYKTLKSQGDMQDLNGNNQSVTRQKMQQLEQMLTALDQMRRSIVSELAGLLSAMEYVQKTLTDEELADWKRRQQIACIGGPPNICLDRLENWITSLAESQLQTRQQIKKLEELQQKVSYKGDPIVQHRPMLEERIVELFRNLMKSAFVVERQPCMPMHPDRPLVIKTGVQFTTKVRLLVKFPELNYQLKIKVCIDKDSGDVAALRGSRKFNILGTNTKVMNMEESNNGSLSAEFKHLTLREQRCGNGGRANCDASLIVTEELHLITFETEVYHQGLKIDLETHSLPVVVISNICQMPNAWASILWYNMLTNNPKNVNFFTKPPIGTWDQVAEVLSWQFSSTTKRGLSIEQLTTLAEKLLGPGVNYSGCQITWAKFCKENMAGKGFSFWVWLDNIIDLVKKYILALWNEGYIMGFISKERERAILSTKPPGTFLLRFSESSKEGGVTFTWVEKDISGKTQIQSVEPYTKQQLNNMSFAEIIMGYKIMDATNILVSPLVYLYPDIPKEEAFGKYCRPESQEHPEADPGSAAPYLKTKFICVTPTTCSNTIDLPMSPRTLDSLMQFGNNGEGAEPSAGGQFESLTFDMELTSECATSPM
mut p53 SMM = binders of human mutant p53, primary screen, biochemical, small molecule microarray, anti-GST fluorescence; mutant tumor protein p53 (GST-tagged), Homo sapiens; small molecule microarray binding; calls only; 17,000 compounds, 0.4% hits; AID 624136, 2012;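 active = compounds whose four printed spots each glow above background more than chance allows, each with a p-value under 7%; compounds were printed on slides so no solution concentration is given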;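 also: about 2 pmol printed per array spot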
ID4 binder = binders of human ID4 protein, primary screen, biochemical, small molecule microarray, single point; 31,000 compounds, 1.2% hits; Flag-ID4 binding, fluorescence F/B; calls only; DNA-binding protein inhibitor ID-4 (Homo sapiens), P47928;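 active = spot signal over background at p below 0.07 in all four prints; compounds were printed on slides so no solution concentration is given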;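 also: a binder raises fluorescence above local background on the spot; about 2 pmol printed per array spot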
Target sequence (P47928 whole entry, looked up): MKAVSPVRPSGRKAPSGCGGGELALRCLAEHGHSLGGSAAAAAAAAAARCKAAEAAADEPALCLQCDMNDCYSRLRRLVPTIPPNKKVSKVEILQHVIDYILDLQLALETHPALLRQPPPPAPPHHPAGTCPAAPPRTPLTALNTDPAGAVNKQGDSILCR
c-Myc SMM = binders of human c-Myc, primary screen, biochemical, small molecule microarray, anti-His fluorescence. calls only. His-c-Myc binding. 17,000 compounds, 1.5% hits. Myc proto-oncogene protein (Homo sapiens), P01106;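 active = spot fluorescence over background with P-value below 7% in all four replicate spots, showing protein binding; compounds were printed on slides so no solution concentration is given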;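 also: score is binary with 100 for all four spots passing and 0 otherwise; about 2 pmol printed per array spot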
Calls only; i = inactive; . = no result given; + = active, no number. Only part of the results is shown. The share of hits here may be higher or lower than overall.

| Molecule | STAT3 SMM | mut p53 SMM | ID4 binder | c-Myc SMM |
| --- | --- | --- | --- | --- |
| C[C@H]1CCCCO[C@H](CN(C)S(=O)(=O)c2cn(C)cn2)[C@@H](C)CN([C@@H](C)CO)C(=O)c2cc(NC(=O)c3ccccc3)ccc2O1 | i | i | i | i |
| C[C@@H]1CN([C@@H](C)CO)C(=O)Cc2cc(N(C)C)ccc2O[C@@H]1CN(C)S(=O)(=O)c1cccs1 | i | i | i | i |
| COc1cccc(NC(=O)N(C)C[C@@H]2OCc3cn(nn3)CCCC(=O)N([C@@H](C)CO)C[C@@H]2C)c1 | i | i | . | i |
| C[C@@H]1CCCCO[C@@H](CN(C)C(=O)Nc2ccc(F)cc2)[C@H](C)CN([C@@H](C)CO)C(=O)c2cc(NS(=O)(=O)c3cn(C)cn3)ccc2O1 | i | i | . | i |
| C[C@@H]1CN([C@H](C)CO)C(=O)Cc2cc(NS(C)(=O)=O)ccc2O[C@H]1CN(C)S(=O)(=O)c1cn(C)cn1 | i | i | i | i |
| COc1cc(CCC(=O)O)cc(OC)c1OC | i | i | . | i |
| CCOC(=O)c1c(NC(=O)c2ccc(C)c(S(=O)(=O)N3CCCC3)c2)sc(C)c1C | i | i | i | i |
| C[C@H](CO)N1C[C@H](C)[C@H](CN(C)Cc2ccc(C(F)(F)F)cc2)OCc2cnnn2CCCC1=O | i | i | i | i |
| CCC(Sc1n[nH]c(N)n1)C(=O)Nc1ccc(C)cc1C (stereo not drawn) | i | i | i | i |
| C[C@H](CO)N1C[C@H](C)[C@@H](CN(C)CC2CC2)Oc2c(NS(C)(=O)=O)cccc2C1=O | i | i | i | i |
| C[C@@H]1CCCCO[C@@H](CN(C)C(=O)CCC(F)(F)F)[C@H](C)CN([C@H](C)CO)C(=O)c2cc(NC(=O)c3ccncc3)ccc2O1 | i | i | i | i |
| COc1ccc(NC(=O)Nc2ccc3c(c2)CC(=O)N([C@H](C)CO)C[C@@H](C)[C@@H](CN(C)S(=O)(=O)c2ccc(C)cc2)O3)cc1 | i | i | i | i |
| O=C(C1=C[C@H](c2ccccc2)C[C@H](OCCCCO)O1)N1CCOCC1 | i | i | i | i |
| C[C@@H]1CN([C@H](C)CO)C(=O)Cc2cc(NC(=O)c3ccncc3)ccc2O[C@H]1CN(C)CC1CC1 | i | i | i | i |
| COC(=O)C(C#N)C(c1cccnc1)c1c(C)[nH][nH]c1=O (stereo not drawn) | i | i | i | i |
| CC1=CC(C)(C)Nc2ccc(OC(=O)CN3C(=O)c4cccc([N+](=O)[O-])c4C3=O)cc21 | i | i | i | i |
| C[C@H]1CN([C@@H](C)CO)C(=O)c2cccc(NC(=O)Nc3ccc(C(F)(F)F)cc3)c2O[C@@H]1CN(C)Cc1ccc(C(=O)O)cc1 | i | i | i | i |
| O=C(O)C1=C[C@H](c2ccccc2)C[C@H](OCc2ccc(CO)cc2)O1 | i | i | . | i |
| C[C@H]1CCCCO[C@H](CN(C)C(=O)Nc2ccccc2)[C@@H](C)CN([C@@H](C)CO)C(=O)c2cc(NS(C)(=O)=O)ccc2O1 | i | i | i | i |
| CCO[C@H]1OC(C(=O)O)=C[C@@H](c2ccc(C(F)(F)F)cc2)[C@@H]1CCCO | i | i | i | i |

Next structures follow:
| Molecule | STAT3 SMM | mut p53 SMM | ID4 binder | c-Myc SMM |
| --- | --- | --- | --- | --- |
| O=S(=O)(Nc1nccs1)c1ccc(NS(=O)(=O)c2cccs2)cc1 | i | i | i | i |
| CNC(=O)CN(C#N)c1nc(C)cc(C)n1 | i | i | i | i |
| COC(=O)N(C)C[C@H]1OCc2cnnn2CCCC(=O)N([C@H](C)CO)C[C@@H]1C | i | i | i | i |
| C[C@H](CO)N1C[C@H](C)[C@@H](CN(C)C(=O)Nc2ccc3c(c2)OCO3)OCCCC[C@H](C)Oc2ccc(NS(=O)(=O)c3ccc(F)cc3)cc2C1=O | i | i | . | i |
| COc1ccc(NC(=O)N(C)C[C@H]2Oc3ccc(NC(=O)Cc4ccccc4)cc3CC(=O)N([C@@H](C)CO)C[C@@H]2C)cc1 | i | i | . | i |
| C[C@@H]1CN([C@H](C)CO)C(=O)c2cc(NC(=O)NC3CCCCC3)ccc2O[C@H]1CN(C)C(=O)Nc1cccc2ccccc12 | i | i | i | i |
| C[C@@H]1CN([C@H](C)CO)C(=O)CCCn2cc(nn2)CO[C@@H]1CN(C)Cc1ccc2c(c1)OCO2 | i | i | i | i |
| O=C(/C=C/c1ccc(O)cc1)OC[C@H]1O[C@@H](O[C@@H]2OC=C[C@H]3[C@H](O)[C@@H]4O[C@]4(CO)[C@@H]23)[C@H](O)[C@@H](O)[C@@H]1O | i | i | . | i |
| CCC(Sc1nnc2c3ccccc3n(C)c2n1)C(=O)Nc1cccc2ccccc12 (stereo not drawn) | i | i | i | i |
| C[C@@H]1CN([C@@H](C)CO)C(=O)Cc2cc(NS(=O)(=O)c3ccc(Cl)cc3)ccc2O[C@@H]1CN(C)C(=O)Nc1ccc(F)cc1 | i | i | i | + |
| C[C@@H]1CN([C@@H](C)CO)C(=O)c2cc(N(C)C)ccc2O[C@@H](C)CCCCO[C@@H]1CN(C)C(=O)Nc1ccccc1 | i | i | i | i |
| C[C@H]1CCCCO[C@@H](CN(C)C)[C@@H](C)CN([C@@H](C)CO)C(=O)c2cc(N(C)C)ccc2O1 | i | i | i | i |
| CCCN(C)C[C@H]1OCCCC[C@@H](C)Oc2ccc(NS(=O)(=O)c3ccc(OC)cc3)cc2C(=O)N([C@H](C)CO)C[C@H]1C | i | + | i | i |
| O=C(Cn1ccc([N+](=O)[O-])n1)Nc1ccc(F)cc1 | i | i | i | i |
| C[C@@H]1CN([C@H](C)CO)C(=O)Cc2cc(NC(=O)CCN3CCOCC3)ccc2O[C@H]1CN(C)C(=O)Nc1cccc2ccccc12 | i | i | i | i |
| CS(=O)(=O)N(CC(=O)Nc1ccc2ccccc2c1)c1ccc(F)cc1 | i | i | i | i |
| Cc1noc(C)c1NC(=O)Nc1cccc2c1O[C@H](CN(C)Cc1ccc(C(F)(F)F)cc1)[C@H](C)CN([C@@H](C)CO)C2=O | i | i | i | i |
| CCN(CC(=O)Nc1ccc(I)cc1)S(=O)(=O)c1ccc2ccccc2c1 | i | i | i | i |
| CC(C)C(NS(=O)(=O)c1c(Cl)cccc1Cl)C(=O)O (stereo not drawn) | i | i | i | i |
| C[C@H]1CN([C@@H](C)CO)C(=O)Cc2cc(NC(=O)NC3CCCCC3)ccc2O[C@H]1CN(C)S(=O)(=O)c1cn(C)cn1 | i | i | i | i |

Four successive entries from above:
| Molecule | STAT3 SMM | mut p53 SMM | ID4 binder | c-Myc SMM |
| --- | --- | --- | --- | --- |
| Cc1noc(C)c1NC(=O)Nc1cccc2c1O[C@H](CN(C)Cc1ccc(C(F)(F)F)cc1)[C@H](C)CN([C@@H](C)CO)C2=O | i | i | i | i |
| CCN(CC(=O)Nc1ccc(I)cc1)S(=O)(=O)c1ccc2ccccc2c1 | i | i | i | i |
| CC(C)C(NS(=O)(=O)c1c(Cl)cccc1Cl)C(=O)O (stereo not drawn) | i | i | i | i |
| C[C@H]1CN([C@@H](C)CO)C(=O)Cc2cc(NC(=O)NC3CCCCC3)ccc2O[C@H]1CN(C)S(=O)(=O)c1cn(C)cn1 | i | i | i | i |

Going on with the list.
Results follow in this order: STAT3 SMM, mut p53 SMM, ID4 binder, c-Myc SMM
C[C@@H]1CN([C@@H](C)CO)C(=O)Cc2cc(NC(=O)C3CC3)ccc2O[C@@H]1CN(C)C(=O)Nc1ccccc1
    i, i, i, i
COc1ccc(-n2c(SCC(N)=O)nc3c(c2=O)C2(CCCCC2)Cc2ccccc2-3)cc1
    i, i, i, i
Cc1noc(C)c1NC(=O)N(C)C[C@H]1Oc2c(NC(=O)c3nc4ccccc4s3)cccc2C(=O)N([C@@H](C)CO)C[C@H]1C
    i, i, i, i
COc1ccc(/C=C2\Oc3cc(O)cc(O)c3C2=O)cc1O
    i, i, i, i
Cc1noc(C)c1S(=O)(=O)Nc1ccc2c(c1)C(=O)N([C@@H](C)CO)C[C@H](C)[C@H](CN(C)C(=O)Nc1ccccc1)OCCCC[C@H](C)O2
    i, i, i, i
CC1=CCC(C(C)(C)O[C@@H]2O[C@H](C)[C@@H](O)[C@H](O)[C@H]2O)CC1 (stereo partly drawn)
    i, i, i, i
CCn1ncc(Cl)c1C(=O)NCc1ccco1
    i, i, i, i
CC12CCC(C(=O)Nc3ccncc3)(c3nc4ccccc4nc31)C2(C)C (stereo not drawn)
    i, i, i, i
O=C(C1=C[C@H](c2ccc(Br)cc2)C[C@H](OCc2ccc(CO)cc2)O1)N1CCN(Cc2ccc3c(c2)OCO3)CC1
    i, i, i, i
C[C@@]12C[C@]3(O)O[C@H](O1)[C@]1(COC(=O)c4ccccc4)[C@H]3C[C@@]12O[C@@H]1O[C@H](CO)[C@@H](O)[C@H](O)[C@H]1O
    i, i, i, i

The results go on.
Results follow in this order: STAT3 SMM, mut p53 SMM, ID4 binder, c-Myc SMM
Cc1ccc(S(=O)(=O)N(C)C[C@@H]2Oc3ccc(NS(C)(=O)=O)cc3C(=O)N([C@@H](C)CO)C[C@H]2C)cc1
    i, i, i, i
COc1ccc(CC(=O)NCc2n[nH]c(=S)n2C)cc1
    i, i, i, i
CC(C)NC(=O)Nc1ccc2c(c1)C(=O)N([C@H](C)CO)C[C@@H](C)[C@@H](CN(C)C(=O)CCCN(C)C)OCCCC[C@@H](C)O2
    i, i, i, i
COc1ccc2c(c1)c(=O)oc1cc(O)ccc12
    i, i, ., i
C[C@@H]1CCCCO[C@H](CN(C)CC2CC2)[C@H](C)CN([C@@H](C)CO)C(=O)c2cc(N(C)C)ccc2O1
    i, i, i, i
C[C@@H]1CN([C@H](C)CO)C(=O)Cc2cc(NS(=O)(=O)c3ccc(Cl)cc3)ccc2O[C@H]1CN(C)C(=O)NC1CCCCC1
    i, i, i, i
CNC[C@@H]1Oc2ccc(N(C)C)cc2CC(=O)N([C@@H](C)CO)C[C@@H]1C
    i, i, i, i
O=C(CCc1nc(-c2ccccc2F)no1)NC1CCCCC1
    i, i, i, i
COc1ccc(COCC23Oc4ccccc4[C@H]([C@H]2CO)n2c(c4c(c(C(C)=O)c2=O)C(=O)N(C)C4=O)N3C)cc1
    i, i, i, i
C[C@@H]1CCCCO[C@H](CN(C)C(=O)Cc2ccccc2)[C@H](C)CN([C@H](C)CO)C(=O)c2cc(NC(=O)Nc3ccccc3)ccc2O1
    i, i, i, i

Further structures.
Results follow in this order: STAT3 SMM, mut p53 SMM, ID4 binder, c-Myc SMM
Cc1noc(C)c1NC(=O)N(C)C[C@H]1Oc2c(NS(=O)(=O)c3cn(C)cn3)cccc2C(=O)N([C@H](C)CO)C[C@@H]1C
    i, i, i, i
CCOC(=O)c1c(NC(=O)c2ccc(Cn3cc(Cl)cn3)o2)sc2c1CCCCC2
    i, i, i, i
Cc1noc(C)c1S(=O)(=O)Nc1ccc2c(c1)C(=O)N([C@H](C)CO)C[C@@H](C)[C@@H](CN(C)C(=O)NC1CCCCC1)O2
    i, i, i, i
C[C@H](CO)N1C[C@H](C)[C@@H](CN(C)C)Oc2ccc(NS(C)(=O)=O)cc2C1=O
    i, i, i, i
O=C(CC1(O)C(=O)N(Cc2ccc(Cl)c(Cl)c2)c2ccccc21)c1cccc([N+](=O)[O-])c1 (stereo not drawn)
    i, i, i, i
Cc1[nH]c(/C=C2\C(=O)Nc3ccc(S(=O)(=O)Cc4c(Cl)cccc4Cl)cc32)c(C)c1C(=O)N1CCC[C@@H]1CN1CCCC1
    i, i, i, i
COc1ccc(S(=O)(=O)Nc2ccc3c(c2)C(=O)N([C@@H](C)CO)C[C@H](C)[C@@H](CN(C)S(=O)(=O)c2ccc(C)cc2)O3)cc1
    i, i, ., i
C[C@H]1CN([C@@H](C)CO)C(=O)c2cccc(NS(=O)(=O)c3ccc(Cl)cc3)c2O[C@@H]1CN(C)CC1CC1
    i, i, i, i
Cc1noc(C)c1NC(=O)N(C)C[C@H]1OCCCC[C@@H](C)Oc2ccc(NS(C)(=O)=O)cc2C(=O)N([C@@H](C)CO)C[C@H]1C
    i, i, i, i
COc1ccc(NC(=O)Nc2ccc3c(c2)CC(=O)N([C@H](C)CO)C[C@H](C)[C@@H](CN(C)C(=O)Nc2ccc4c(c2)OCO4)O3)cc1
    i, i, ., i

(list continues)
Results follow in this order: STAT3 SMM, mut p53 SMM, ID4 binder, c-Myc SMM
CCCNC(=O)[C@H]1O[C@@H]1C(=O)N[C@H](C(=O)N1CCC[C@H]1C(=O)OC)C(C)CC (stereo partly drawn)
    i, i, i, i
C[C@@H]1CN([C@@H](C)CO)C(=O)c2cc(NS(=O)(=O)c3ccccc3)ccc2O[C@@H](C)CCCCO[C@@H]1CN(C)S(=O)(=O)c1cccs1
    i, i, ., i
C[C@H]1CN([C@@H](C)CO)C(=O)c2cccc(NC(=O)C3CCOCC3)c2O[C@H]1CN(C)C(=O)Nc1cccc2ccccc12
    i, i, i, i
C[C@@H]1CN([C@H](C)CO)C(=O)c2cccc(NC(=O)C3CCOCC3)c2O[C@H]1CN(C)Cc1ccccc1
    i, i, i, i
Cc1onc(-c2ccccc2)c1C(=O)Nc1cccc2nsnc12
    i, i, i, i
CC1=C(CO)C(=O)OC([C@@H](C)[C@H]2CCC3C4CC=C5C[C@@H](O[C@@H]6O[C@H](CO)[C@@H](O)[C@H](O)[C@H]6O)C[C@H](O)[C@]5(C)C4CC[C@@]32C)C1 (stereo partly drawn)
    i, i, i, i

Source: PubChem
